# Compound activity from PubChem BioAssay.
# WT yeast gro inh: growth inhibition of WT strain, primary screen, mitochondrial fusion inhibitor project, WT and mutant strains, chemical genetic | mitochondrial fusion phenotypic screen | inhibition, % at 10 µM | 190,000 compounds, 2.1% hits | AID 1362, 2008; in the data active = inhibition above about 58%; tested in S. cerevisiae
# LYP phosphatase: inhibitors of LYP phosphatase, biochemical, fluorescence intensity, uHTS (AID 1779) | recombinant LYP phosphatase, fluorescence intensity; higher % means a stronger effect | 290,000 compounds, 0.054% hits | one-dose inhibition, % at 11.5 µM; IC50 in µM for titrated hits | Tyrosine-protein phosphatase non-receptor type 22 (Homo sapiens); in the data active = inhibition above about 50%;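 note: plate controls were vehicle with enzyme for no effect and no enzyme for full effect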
# XIAP displacement: XIAP antagonists, biochemical, IAP family, fluorescence polarization (AID 1018); E3 ubiquitin-protein ligase XIAP (Homo sapiens); XIAP BIR domain, fluorescence polarization peptide displacement; higher % means a stronger effect; one-dose displacement, % at 20 µM; IC50 in µM for titrated hits; 200,000 compounds, 0.007% hits; in the data active = displacement above about 50%; note: a part of the inactive calls stands beside numbers as strong as those of hits
# M1AAP inhibition: P. falciparum M1AAP inhibitors, biochemical, fluorogenic H-Leu-NHMec substrate, 1536-well (AID 1445). inhibition, % at 30 µM, or IC50 in µM where a hit was titrated. recombinant M1AAP, H-Leu-NHMec fluorogenic kinetic assay; higher % means a stronger effect. Aminopeptidase N (Plasmodium falciparum (isolate 3D7)). 220,000 compounds, 0.42% hits;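 active = primary inhibition above the hit cutoff, then over 50% inhibition at one or more dose response concentrations, cut at about 23% in these data, passing the limit was not always enough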;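 note: plate controls were DMSO full reaction for no effect and no enzyme background for full effect; strong numbers were not always called active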
# Yfh1-off respiration: enhancers of respiration in Yfh1-depleted yeast, dose response, Friedreich's ataxia, plus single-dose screen (AID 1465); S. cerevisiae Yfh1-off respiration, WST-1 reduction, 72 h; higher fold induction means a stronger effect; one-dose fold induction at 50 µM; EC50 in µM for titrated hits; 220,000 compounds, 0.074% hits;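 active = fold induction of absorbance versus untreated yeast above a set limit, then at least 30% activation at any dose in follow-up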;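 note: activators that raise dye reduction in frataxin-depleted yeast; strong numbers were not always called active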
# TNAP activation fold: human TNAP enzyme activators, primary screen, biochemical, luminescent, no phosphate acceptor, uHTS (AID 1001); Alkaline phosphatase, tissue-nonspecific isozyme (Homo sapiens); 200,000 compounds, 0.03% hits; purified TNAP, luminescent activation assay, no phosphate acceptor; higher activation fold means a stronger effect; activation fold at 20 µM; hits with a dose series show EC50 in µM; in the data active = activation fold from about 3, or a potency from the dose series; inactive = the rest, 99 in 100 with activation fold below about 1.6; note: many of its hits are not listed in these tables
# M17LAP inhibition: P. falciparum M17LAP inhibitors, primary screen, biochemical, fluorogenic H-Leu-NHMec substrate, 1536-well (AID 1619). inhibition, % at 30 µM, or IC50 in µM where a hit was titrated. 220,000 compounds, 0.38% hits. recombinant M17LAP, H-Leu-NHMec fluorogenic kinetic assay; higher % means a stronger effect. Leucine aminopeptidase (Plasmodium falciparum (isolate 3D7));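 active = compound inhibiting the enzyme by more than half at any dose during confirmatory dose-response retesting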;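 note: plate controls were full reaction with DMSO carrier for no effect and no enzyme background for full effect; strong numbers were not always called active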
# WT yeast gro inh mutant strain: also measured in WT yeast gro inh; calls as there; inhibition, %; mitochondrial fusion phenotypic screen, mutant strain inhibition
# Starred values were filed as active, the others as inactive; i = inactive; . = no result given.
1. O=C(Cc1ccccc1)NC(Nc1cccc2ccccc12)C(Cl)(Cl)Cl (stereo not drawn)
2. CN1c2cccc3cccc(c23)N(C)C1c1cccs1
3. CCOC(=O)c1c(C)[nH]c2c1cc(O)c1ccccc12
4. COc1ccc(Cl)cc1C(=O)NNC(=S)NC(=O)c1cc(-c2ccc(Cl)cc2)nc2ccccc12
5. CCOC(=O)CSC1=C(C#N)C(c2ccccc2F)C(C(C)=O)=C(C)N1 (stereo not drawn)

Compound | 1 | 2 | 3 | 4 | 5
WT yeast gro inh | -22.3 | 5.4 | 6.7 | -3.3 | -1.0
WT yeast gro inh mutant strain | -11.4 | 17.2 | 11.7 | -20.6 | -10.5
LYP phosphatase | -1.4% | -13.5% | -1.0% | -11.2% | -1.1%
XIAP displacement | 0.2% | -5.8% | -6.6% | -4.8% | -1.2%
M1AAP inhibition | 2.8% | 0.5% | 8.4% | 2.8% | 7.0%
Yfh1-off respiration | i | i | i | i | i
TNAP activation fold | 1.1 | 1.1 | 1.1 | 1.1 | 1.1
M17LAP inhibition | -1.8% | 8.1% | -6.6% | 5.4% | 20.5%

6. Cc1nnc(NC(=O)c2sc3nc(-c4cccs4)cc(C(F)(F)F)c3c2N)s1
7. O=C(NCc1cccnc1)C1c2ccccc2C(=O)N1C1CCCCCCC1 (stereo not drawn)
8. COc1ccc(S(=O)(=O)N2Cc3ccccc3CC2C(=O)Nc2nccs2)cc1 (stereo not drawn)
9. CN1CCN(c2ccc([N+](=O)[O-])cc2C(=O)c2ccc(Br)cc2)CC1
10. Cc1cccc(Cc2c(C)nc3nc(SCC(=O)NCc4ccco4)nn3c2C)c1

Compound | 6 | 7 | 8 | 9 | 10
WT yeast gro inh | 70.5* | 11.1 | -4.1 | 7.2 | 7.1
WT yeast gro inh mutant strain | 8.7* | 12.0 | -11.3 | 4.4 | 9.3
LYP phosphatase | -5.6% | -8.6% | -2.2% | -4.0% | 2.3%
XIAP displacement | -6.5% | -5.1% | 3.2% | -4.5% | -6.4%
M1AAP inhibition | -0.6% | -0.8% | 3.2% | 4.6% | 4.1%
Yfh1-off respiration | i | i | i | i | i
TNAP activation fold | 0.9 | 1.1 | 1.1 | 1 | 1
M17LAP inhibition | -16.9% | -4.3% | -6.5% | 8.3% | 13.9%

11. COc1ccc(NC(=O)[C@H](COCc2ccccc2)NC(=O)OC(C)(C)C)cc1
12. O=C(NC1CCCCC1)NC1CC2CCCC(C1)N2C1CCCC1 (stereo not drawn)
13. Cc1cccc(-n2ncc3c(NCCCN4CCCC4=O)ncnc32)c1
14. Cc1nnc(N(C)C(=O)c2ccccn2)s1
15. O=C(CCn1nc(-c2ccccc2)ccc1=O)NCCCN1CCCCCC1

Compound | 11 | 12 | 13 | 14 | 15
WT yeast gro inh | -4.4 | 11.0 | -8.3 | 14.5 | 3.5
WT yeast gro inh mutant strain | -8.5 | -6.7 | -5.8 | -2.2 | 32.5
LYP phosphatase | -7.5% | -5.3% | -6.2% | -4.3% | -8.2%
XIAP displacement | -3.6% | -16.4% | -1.6% | -4.8% | 0.2%
M1AAP inhibition | -0.2% | 2.0% | -2.2% | -2.1% | 6.8%
Yfh1-off respiration | i | i | i | . | .
TNAP activation fold | 1.1 | 1.1 | 1 | 1.1 | 1.1
M17LAP inhibition | -0.2% | 4.6% | 7.2% | 2.7% | 3.6%

16. COC(=O)N(C)c1ccccc1C(=O)N1CCOCC1
17. O=C(Nc1cc2c(oc1=O)CCCC2=O)c1ccc(Cl)cc1
18. COC(=O)c1cn(NC(=O)c2cccc(OC)c2)c(=O)c2ccccc12
19. COc1ccccc1-c1c(C)oc2c(CN3CCN(CCO)CC3)c(O)ccc2c1=O
20. CC(=O)Nc1ccc(NCN2C(=O)C3C4CCC(C4)C3C2=O)cc1 (stereo not drawn)

Compound | 16 | 17 | 18 | 19 | 20
WT yeast gro inh | -3.0 | -6.1 | -14.0 | 18.9 | -9.3
WT yeast gro inh mutant strain | -1.2 | 5.5 | -7.2 | -9.8 | -5.2
LYP phosphatase | -1.6% | 2.8% | 0.5% | -2.1% | -3.0%
XIAP displacement | -25.5% | -0.1% | -3.6% | -3.5% | -2.8%
M1AAP inhibition | 0.7% | 9.7% | 2.7% | 9.5% | -0.2%
Yfh1-off respiration | i | i | i | . | i
TNAP activation fold | 1.1 | 1.1 | 1 | 1.1 | 1
M17LAP inhibition | 5.7% | 9.6% | -15.2% | -304.9% | -5.3%

# Some of these compounds in order of SMILES length, smallest number first:
14. Cc1nnc(N(C)C(=O)c2ccccn2)s1
16. COC(=O)N(C)c1ccccc1C(=O)N1CCOCC1
17. O=C(Nc1cc2c(oc1=O)CCCC2=O)c1ccc(Cl)cc1
13. Cc1cccc(-n2ncc3c(NCCCN4CCCC4=O)ncnc32)c1
20. CC(=O)Nc1ccc(NCN2C(=O)C3C4CCC(C4)C3C2=O)cc1 (stereo not drawn)
18. COC(=O)c1cn(NC(=O)c2cccc(OC)c2)c(=O)c2ccccc12
8. COc1ccc(S(=O)(=O)N2Cc3ccccc3CC2C(=O)Nc2nccs2)cc1 (stereo not drawn)

Compound | 14 | 16 | 17 | 13 | 20 | 18 | 8
WT yeast gro inh | 14.5 | -3.0 | -6.1 | -8.3 | -9.3 | -14.0 | -4.1
WT yeast gro inh mutant strain | -2.2 | -1.2 | 5.5 | -5.8 | -5.2 | -7.2 | -11.3
LYP phosphatase | -4.3% | -1.6% | 2.8% | -6.2% | -3.0% | 0.5% | -2.2%
XIAP displacement | -4.8% | -25.5% | -0.1% | -1.6% | -2.8% | -3.6% | 3.2%
M1AAP inhibition | -2.1% | 0.7% | 9.7% | -2.2% | -0.2% | 2.7% | 3.2%
Yfh1-off respiration | . | i | i | i | i | i | i
TNAP activation fold | 1.1 | 1.1 | 1.1 | 1 | 1 | 1 | 1.1
M17LAP inhibition | 2.7% | 5.7% | 9.6% | 7.2% | -5.3% | -15.2% | -6.5%

19. COc1ccccc1-c1c(C)oc2c(CN3CCN(CCO)CC3)c(O)ccc2c1=O
9. CN1CCN(c2ccc([N+](=O)[O-])cc2C(=O)c2ccc(Br)cc2)CC1
11. COc1ccc(NC(=O)[C@H](COCc2ccccc2)NC(=O)OC(C)(C)C)cc1

Compound | 19 | 9 | 11
WT yeast gro inh | 18.9 | 7.2 | -4.4
WT yeast gro inh mutant strain | -9.8 | 4.4 | -8.5
LYP phosphatase | -2.1% | -4.0% | -7.5%
XIAP displacement | -3.5% | -4.5% | -3.6%
M1AAP inhibition | 9.5% | 4.6% | -0.2%
Yfh1-off respiration | . | i | i
TNAP activation fold | 1.1 | 1 | 1.1
M17LAP inhibition | -304.9% | 8.3% | -0.2%

# Other compounds:
21. CCCCCCNCc1cccc(Br)c1
22. Cc1cc2ccccc2n1CCNC(=O)c1ccccc1
23. Cc1cc(C)n(S(=O)(=O)Cc2ccccc2)n1
24. CCc1cccc(CC)c1NC(=O)CN1CC(C)SC1=NC1CCCCC1 (stereo not drawn)
25. CCCn1c(-c2cc(OC)c(OC)c(OC)c2)nc2nc3ccccc3nc21

Compound | 21 | 22 | 23 | 24 | 25
WT yeast gro inh | 21.0 | 9.2 | -18.5 | 3.5 | 25.5
WT yeast gro inh mutant strain | 8.5 | 8.8 | -13.7 | -0.2 | 12.1
LYP phosphatase | -13.5% | -2.2% | -6.3% | 1.9% | -0.9%
XIAP displacement | -4.8% | -5.3% | -21.7% | 1.7% | 3.4%
M1AAP inhibition | -4.1% | 5.6% | 0.8% | -0.3% | 9.2%
Yfh1-off respiration | i | i | i | i | i
TNAP activation fold | 1.1 | 1.1 | 1 | 1.1 | 1.1
M17LAP inhibition | -2.6% | 21.3% | -18.1% | -6.2% | 6.8%

# Entries by screen from above.
# Compounds 11–21 in Yfh1-off respiration, in turn: i, i, i, ., ., i, i, i, ., i, i

# (further entries)
26. CCc1ccc(OCC(=O)NCCN(C)C)c(Br)c1
27. O=C(Nc1ccccc1)c1ccc(Cn2cc(C(F)(F)F)ccc2=O)cc1
28. CCn1cc(C(=O)NCC2CCCO2)c(=O)c2cc(F)c(N3CCN(C)CC3)cc21 (stereo not drawn)
29. COc1ccc(CCNc2c(C)c(C)nc3ncnn23)cc1
30. O=C(Nc1ccc(Cl)cc1)Nc1nc(-c2sccc2Br)cs1
31. CC(C)CC(=O)NC1(C(F)(F)F)C(=O)N(Cc2ccccc2)C2=C1C(=O)CC(C)(C)C2 (stereo not drawn)

Compound | 26 | 27 | 28 | 29 | 30 | 31
WT yeast gro inh | 8.3 | 6.9 | -4.6 | -5.1 | 16.3 | 8.8
WT yeast gro inh mutant strain | 4.9 | 3.5 | 3.9 | 9.2 | -6.6 | 8.5
LYP phosphatase | -2.5% | -2.4% | -9.1% | -8.6% | -8.1% | -5.6%
XIAP displacement | 1.4% | 1.3% | -0.4% | -4.7% | 0.0% | -1.9%
M1AAP inhibition | 2.9% | 4.4% | 2.2% | 1.6% | 0.9% | 2.8%
Yfh1-off respiration | i | i | i | i | . | i
TNAP activation fold | 1.1 | 1.1 | 1.1 | 1 | 1 | 1.1
M17LAP inhibition | -0.1% | 6.4% | -19.3% | -4.1% | 6.6% | -2.7%

# The list is partial (hit frequency here may not be typical).
